High-throughput results (PubChem)
HNF4A DNA FP = change in binding of human HNF4A to DNA, primary screen, biochemical, fluorescence polarization, FITC-DNA; Hepatocyte nuclear factor 4-alpha (Homo sapiens), P41235; 1 h; activity change, % at 10 µM; 360,000 tested, 0.3% active; AID 1224865, 2016; in the data active = activity change above about 30%, passing the limit was not always enough;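 also: controls were the assay level and a saturating level of protein; the project sought stronger binding though the title names inhibitors; some compounds called inactive have numbers as strong as hits; positive values seem to mean higher polarization but the record does not say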
Target sequence (P41235 whole entry, looked up): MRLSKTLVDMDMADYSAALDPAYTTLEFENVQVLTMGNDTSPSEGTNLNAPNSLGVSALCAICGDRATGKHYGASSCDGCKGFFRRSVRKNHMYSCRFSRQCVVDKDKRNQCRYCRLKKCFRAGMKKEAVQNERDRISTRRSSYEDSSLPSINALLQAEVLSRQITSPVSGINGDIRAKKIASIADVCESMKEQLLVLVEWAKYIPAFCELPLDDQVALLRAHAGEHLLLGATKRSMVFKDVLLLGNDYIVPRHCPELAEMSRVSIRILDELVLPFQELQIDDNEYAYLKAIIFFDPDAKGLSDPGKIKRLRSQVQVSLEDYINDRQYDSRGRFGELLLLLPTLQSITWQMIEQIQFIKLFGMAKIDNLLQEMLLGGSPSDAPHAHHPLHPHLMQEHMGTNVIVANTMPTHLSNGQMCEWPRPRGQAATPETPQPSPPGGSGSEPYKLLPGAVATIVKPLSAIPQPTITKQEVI
Beta2AR agonist = beta2AR agonists driving receptor internalization, primary screen, cell-based, FAP fluorogen, flow cytometry. Beta-2 adrenergic receptor (Homo sapiens), P07550. Am2.2-beta2AR cells; reference of the scale not given here. response, % (test concentration not listed). 340,000 tested, 0.43% active;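 active = response above a set limit, near 3 SD of response in nonfluorescent compounds, cut at about 42% in these data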;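 also: stock transfer was 100 nL into about 11 µL; a reference agonist was the positive control; negative values mostly stem from fluorescent compounds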
FGF22 binding = binders of human FGF22 protein, primary screen, FGF22 synaptogenesis inhibitor project, biophysical, thermal shift, single point. AID 651658, 2012. recombinant FGF22 thermal shift, SYPRO orange fluorescence; percent of sucrose octasulfate shift, DMSO zero. Fibroblast growth factor 22 (Homo sapiens), Q9HCT0. 340,000 tested, 1.5% active. calls only at 9.99 µM;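 active = melting point raised past a set limit in the mean and every replicate; inconclusive = no clear call; three in four hits are not shown here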
Target sequence (Q9HCT0 whole entry, looked up): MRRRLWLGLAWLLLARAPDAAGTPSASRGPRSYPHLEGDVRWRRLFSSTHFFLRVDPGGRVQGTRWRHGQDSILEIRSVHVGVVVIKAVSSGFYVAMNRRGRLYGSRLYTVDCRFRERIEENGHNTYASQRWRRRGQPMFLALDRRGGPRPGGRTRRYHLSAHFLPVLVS
Ecoli rRNA inh = reduced GFP signal of wild-type E. coli, primary screen, bacterial rRNA inhibitor project, GFP/RFP fluorescence, OD600, single point. 350,000 tested, 1.6% active. AID 720706, 2013. E. coli WT GFP vs humanized-ribosome RFP mutants, 24 h; hits give low values; DMSO median 0, no signal -100. GFP signal change (wild-type ribosome), % (no concentration beside the values);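 active = significant combined selectivity score with lowered wild-type GFP, culture density cut under 30%, mutant RFP and density less affected; inactive = any of these conditions unmet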; also: one replicate is shown; some compounds called inactive have numbers as strong as hits
UCH37 inh = inhibitors of human UCH37 deubiquitinase, primary screen, biochemical, Ub-AMC cleavage, fluorescence | purified proteasome/UCH37 | inhibition, % (concentration not given with the values) | AID 588478, 2011 | 330,000 tested, 0.33% active | Ubiquitin carboxyl-terminal hydrolase isozyme L5 (Homo sapiens), Q9Y5K5;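 active = mean of two replicates above 20%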;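 also: 0% = compound-free wells with enzyme and 100% = wells lacking proteasome; stock transfer was 100 nL into about 20 µL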
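Test system – human UCH37 enzyme supplied as purified proteasome complex · Incubation – 30 min preincubation with enzyme, 25 min cleavage at room temperature · Detection – AMC fluorescence from Ub-AMC cleavage, excitation 355 nm, emission 460 nm · Benchmarks – no-proteasome wells (full inhibition) and compound-free wells (no inhibition)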
ALR H2O2 inh = inhibitors of human ALR sulfhydryl oxidase, primary screen, biochemical, H2O2 detection, HRP-luminol luminescence, single point. FAD-linked sulfhydryl oxidase ALR (Homo sapiens), P55789. purified ALR, DTT oxidation. inhibition, % (no concentration beside the values). 290,000 tested, 3.8% active;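 active = mean and each replicate at 75% or more; inconclusive = only one of the two met; inactive = neither met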;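 also: stock transfer was 7.5 nL into about 7.5 µL; 0% = neutral wells and 100% = wells with inactivated enzyme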
Target sequence (P55789 whole entry, looked up): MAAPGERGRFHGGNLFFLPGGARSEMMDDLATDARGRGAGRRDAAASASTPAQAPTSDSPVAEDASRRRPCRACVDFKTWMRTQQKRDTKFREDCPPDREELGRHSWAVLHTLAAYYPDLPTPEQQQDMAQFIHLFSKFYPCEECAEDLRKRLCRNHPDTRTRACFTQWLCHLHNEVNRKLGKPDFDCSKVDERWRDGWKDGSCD
E coli growth = E. coli growth inhibition, primary screen, OD600; Escherichia coli growth, 23 h; hits give low values; OD600 absorbance (concentration not given with the values); 330,000 tested, 0.21% active; AID 1053175, 2014;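 active = OD600 absorbance below the run mean of sample wells minus 3.6 SD, in any replicate, cut at about 0.56 in these data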;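 also: stock transfer was 300 nL into about 60 µL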
Ecoli rRNA inh OD600 = also measured in Ecoli rRNA inh; calls as there; OD600 change, %; measured here: OD600 growth;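 optical density of the mix in the first replicate; 0 = DMSO median and -100 = no signal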
Ecoli rRNA inh RFP = second read-out of Ecoli rRNA inh, no call of its own (marks repeat the call); RFP signal change, %; measured here: RFP humanized mutant strains;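 first replicate; 0 = DMSO median and -100 = no signal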
Active calls of the source: *; i = inactive; ? = inconclusive; / = not tested or not shown; & = joins results of further samples. Not all compounds are listed. The share of hits here may be higher or lower than overall.

No.	structure	HNF4A DNA FP	Beta2AR agonist	FGF22 binding	Ecoli rRNA inh	Ecoli rRNA inh OD600	Ecoli rRNA inh RFP	UCH37 inh	ALR H2O2 inh	E coli growth
1	Cc1cnc(C(=O)N2CCCC(C(=O)c3ccc(C(F)(F)F)cc3)C2)cn1 (stereo unspecified)	-2.7	-9	i	2	1	-0.1	0.8	-4	0.67
2	CC1=CC[C@@]23CCCN2C(=O)CCC[C@H]3C1	-1.8	-2	i	17	3	0.7	1.7	/	0.71
3	Cc1ccc(CNC(=O)CCn2nc(-c3ccc(Cl)cc3)ccc2=O)cc1	3.2	-7	/	/	/	/	5.5	-7	0.68
4	Cc1ccc(C)c(Cn2c(C(C)O)nc3ccccc32)c1 (stereo unspecified)	2.7	-7	/	/	/	/	2.9	17	0.75
5	CCC(=O)Nc1ccc(C(=O)NNC(=O)COc2cc(C)ccc2C)cc1	0.0	4	/	/	/	/	4.0	-6	0.73
6	O=S(=O)(CCN1CCOCC1)c1ccc(Cl)cc1	1.6	5	i	10	3	-0.5	0.9	-4	0.66
7	O=C(OCCN1CCOCC1)C(c1ccccc1)c1ccccc1	4.7	/	/	/	/	/	4.2	-10	0.65
8	O=C(CSc1ncnc2c1oc1ccccc12)Nc1cccc(F)c1	-1.6	-13	/	/	/	/	1.1	-4	0.72
9	CCOC(=O)c1cc(C)sc1NC(=O)CCC(=O)O	-0.6	-1	/	/	/	/	-0.3	-1	0.72
10	CC(=O)Oc1ccc(CN2C(=O)C(CCc3ccccc3)ON=C2c2cnccn2)cc1 (stereo unspecified)	1.5	/	i	-4	-28	2.4	/	/	/
11	Cc1ccc(-n2[nH]c(C)c(C=Nc3ccc4[nH]c(=O)[nH]c4c3)c2=O)cc1	1.1	4	i	9	21	4.1	/	7	/
12	COc1ccc(C2C(C(=O)NC(C)C)c3ccccc3C(=O)N2C)cc1OC (stereo unspecified)	4.0	6	/	/	/	/	1.9	-12	0.68
13	O=C(COC(=O)COc1ccc(Cl)cc1Cl)NC1CCCC1	5.9	2	i	0	1	-1.5	5.5	/	0.68
14	CC1Oc2ccccc2OC1(O)c1ccccn1 (stereo unspecified)	2.5	4	i	9	12	-2.8	2.8	2	0.69
15	CCOc1cc(C(=O)NCCOC)cc(OCC)c1OCC	2.0	0	/	/	/	/	0.6	1	0.76
16	CCOC(=O)C1=C(C)NC(=O)NC1c1cccc(O)c1 (stereo unspecified)	-0.2	1	/	/	/	/	4.0	-5	0.7
17	O=C(CNC(=O)Cc1ccccc1)NCC(=O)OCc1ccc(C(=O)c2ccccc2)cc1	-5.4	-6	i	19	21	-3.7	1.6	-7	0.69
18	COc1ccccc1NC(=S)N1CCNC(=O)C1CC(=O)Nc1cccc(C)c1 (stereo unspecified)	-3.3	-6	i	7	6	-3.7	2.1	-5	0.7
19	COc1ccc(O)c(C(=O)c2cc(C#N)c(=O)n(-c3ccc(Cl)cc3)c2)c1	29	4	i	1	-3	-3.0	0.6	13	0.69
20	CSCCC(=O)N1CCCC(CNC(=O)c2ccccc2Cl)C1 (stereo unspecified)	-2.1	1	i	24	15	2.4	-21	-3	0.69
21	COc1cccc(NC(=O)Nc2ccc(Cc3ccncc3)cc2)c1	1.5	-1	i	/	/	/	5.2	/	0.64
22	Cc1cc(C(C)(C)C)ccc1OCC(=O)N/N=C\c1c(C)n(C)n(-c2ccccc2)c1=O	1.3	6	i	-2	-13	-0.7	/	/	/
23	COc1cccc(/C=C/C(=C2/C(=O)N(c3ccccc3)N=C2C)c2ccc(Br)cc2)c1OC	-1.5	-17	/	/	/	/	14	-4	0.7
24	COC(=O)c1cc(S(=O)(=O)NCC2CCN(Cc3cccc(F)c3)CC2)cn1C	0.4	3	i	5	3	-1.4	-0.5	-10	0.64
25	CC(C)c1ccc(S(=O)(=O)c2n[nH]n3c2nc(=O)c2ccccc23)cc1	-4.3	-8	/	-8	-9	-2.4	-11	-1	0.69
26	COc1cc(C(=O)Oc2ccc(Br)cc2C(=S)N2CCOCC2)cc(OC)c1OC	-1.0	-2	i	3	-16	1.4	2.6	-2	0.65
27	COc1ccc(-c2c3c(=O)n(C)c(=O)n(C)c3cn2Cc2cccnc2)cc1	-1.1	4	/	/	/	/	0.3	-43	0.72
28	COc1ccc(C(=O)NCC(=O)Nc2cccc(S(=O)(=O)N3CCCC3)c2)cc1	-0.2	4	i	3	8	3.3	2.2	-7	0.73
29	Cc1ccc(S(=O)(=O)NC(=O)Nc2cc(C(C)(C)C)on2)cc1	1.5	6	i	16	14	1.0	0.4	-1	0.65
30	COc1ccccc1NS(=O)(=O)c1cccc(C(=O)NCC2(N3CCCCC3)CCCCC2)c1	1.4	12	i	0	-4	-0.6	3.2	/	0.69
31	CCC(=O)c1ccc(OCC(=O)OCC(=O)N(CCC#N)c2ccc3c(c2)OCCO3)cc1	3.7	4	i	10	16	1.2	5.6	-2	0.68
32	CCOC(=O)N1CCC(N2Cc3cccc(C(=O)Nc4ccc(CC)cc4)c3C2=O)CC1	3.4	5	/	/	/	/	1.6	-1	0.69
33	CCOC(=O)c1cc(-c2ccccc2)n[nH]1	-1.7	7	i	-7	-5	-2.5	4.6	3	0.64
34	C[C@H]1CN([C@@H](C)CO)S(=O)(=O)c2ccc(Br)cc2O[C@H]1CN(C)S(=O)(=O)c1ccccc1F	-1.0	/	i	6&-13	2&-30	2.6&-5.3	/	/	/
35	CC1(C)CCCN(C(=O)N2c3ccccc3Sc3ccccc32)C1	2.7	-4	/	-7	-13	-6.0	2.7	53	0.74
36	CCOc1ccc(CCn2c(-c3ccco3)nc3ccccc3c2=O)cc1OCC	-1.7	8	/	/	/	/	0.9	-9	0.71
37	COC(=O)c1cccc(N2C(=O)C3CC=CCC3C2=O)c1 (stereo unspecified)	-0.2	1	/	/	/	/	3.9	/	0.71
38	Cc1ccc(S(=O)(=O)/N=C(/c2ccc(F)cc2)N2CCOCC2)cc1	0.3	8	i	/	/	/	/	-13	/
39	N#Cc1cc(N)c(Nc2ccccc2)cc1C#N	-3.6	-6	/	/	/	/	-14	61	0.65
40	Cc1cccc(CN2CCC(N3CC(C)OC(C)C3)CC2)c1 (stereo unspecified)	-0.5	-5	i	6	8	1.2	-2.8	-7	0.66
41	CN1CCc2nc(SCc3ccc(C(C)(C)C)cc3)c(C#N)cc2C1	15	7	/	/	/	/	-3.2	?	0.67
42	CCOCCn1c(SC)nc2c1c(=O)[nH]c(=O)n2C	3.2	1	/	/	/	/	4.5	-6	0.68
43	CCN1CCN(C(=S)Nc2ccc3nc4n(c(=O)c3c2)CCCCC4)CC1	0.8	-6	/	9	6	0.2	1.6	5	0.72
44	COc1ccc(NC(=O)C2C(=O)N(C)C3(C)CC2c2ccccc2O3)cc1 (stereo unspecified)	1.1	-1	/	/	/	/	2.2	-7	0.7
45	Cn1cc(CCNC(=O)CC2C(=O)NCCN2CC(c2ccccc2)c2ccccc2)cn1 (stereo unspecified)	2.9	8	i	4	3	2.4	0.8	-2	0.7
46	CCCCc1cc2c(s1)CCCC/C2=N/O	-0.4	5	i	-49	-73	-24	/	-10	/
47	CC(C)NC(=O)N(C)C[C@H]1Oc2c(NC(=O)Nc3ccc(C(F)(F)F)cc3)cccc2C(=O)N([C@H](C)CO)C[C@@H]1C	1.5	-2	i	-3&8	-1&18	0.3&-5.4	-2.9	1	0.76
48	CCCN(C)C1CN(Cc2cn(Cc3ccc(F)cc3)nn2)S(=O)(=O)C1 (stereo unspecified)	0.1	/	i	19	10	0.0	/	/	/
49	COc1cccc(CN2CCCC(C(=O)N3CCCCC3)C2)c1OC (stereo unspecified)	-2.7	1	/	/	/	/	-4.2	-26	0.72
50	CSc1ncnc2c1ncn2CCCNCCCc1ccccc1	-5.0	/	i	-4	4	3.4	/	/	/
51	NC(=O)c1cccc(-c2coc3c(C(=O)NCc4ccccc4)cccc23)c1	-3.0	/	i	-44	-69	-12	/	/	/
